# S aureus helic – S. aureus DNA helicase inhibition. purified S. aureus helicase, fluorescence unwinding assay; about half of the hits fall short of the stated cut. inhibition, %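 (tested at about 80 µM)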. 0.05% of 120,000 active;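 active = both duplicates at 50% or more, or one of them with a favoured structure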;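 note: 0% = mean of negative control wells and 100% = mean of positive control wells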
# MgrA DNA FP – modulators of Staphylococcus aureus MgrA DNA binding | fluorescence polarization | inhibition, %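 (about 10 µg/mL by stock and volumes)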 | 0.13% of 84,000 active | AID 602314;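 active = above 50% in either of two replicates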;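 note: 0% = protein plus DNA without compound and 100% = DNA alone without protein; higher means less MgrA bound to DNA so lower polarization; one replicate is shown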
# * marks the source's active call; other numbers are inactive results; / = no result given; & = joins results of further samples. A portion of the library. The share of hits here may be higher or lower than overall.
# Preview:
No.	canonical_smiles	S aureus helic	MgrA DNA FP
1	COC(=O)CN1C(=S)N(C)C(=O)/C1=C/c1ccco1	10	3.9
2	Cn1c(SCC(=O)Nc2cccc(Cl)c2)nnc1C(F)(F)F	/	-2.6
3	CCOC(=O)c1ccc(NCc2ccccc2OC)cc1	0	0.2

# The listing, previewed entries included:
No.	canonical_smiles	S aureus helic	MgrA DNA FP
1	COC(=O)CN1C(=S)N(C)C(=O)/C1=C/c1ccco1	10	3.9
2	Cn1c(SCC(=O)Nc2cccc(Cl)c2)nnc1C(F)(F)F	/	-2.6
3	CCOC(=O)c1ccc(NCc2ccccc2OC)cc1	0	0.2
4	CCOC(=O)c1nc(NCc2ccc3c(c2)OCO3)c2ccccc2n1	6	/
5	CNC(=O)Cn1nc(-n2cccc2)c2c(C)cc(C)nc21	20	/
6	Clc1nc(Cl)nc(OCCCOc2nc(Cl)nc(Cl)n2)n1	1	-0.8
7	O=C(CCCN1CCN(c2ccccn2)CC1)c1ccc(F)cc1	/	1.2&0.1
8	COc1ccc(C(=O)NC2CCS(=O)(=O)C2)cc1 (stereo not drawn)	/	-2.1
9	CN(Cc1cccs1)C(=O)COc1ccc(-c2nnco2)cc1	15	/
10	c1ccc(CNc2ncnc3nc[nH]c23)cc1	3&5	-0.4&1.4
11	N#Cc1ccccc1S(=O)(=O)Nc1ccccc1	11	/
12	O=C(CNC1CC1)Nc1c(Cl)cccc1Cl	-11	/
13	CCOC(=O)c1cnc2ccc(C)cc2c1NCCO	-11	/
14	NC(=O)COC(=O)c1cc(Cl)cc(Cl)c1	-3	-0.9
15	CCN1/C(=C/c2scc[n+]2C)C=C(C)c2cc(OC)c3ccccc3c21	-40	29
16	CC(C)(C)SCC(=O)NCc1ccc(S(N)(=O)=O)cc1	16	/
17	O=C(C1CCCCC1)N1CC(=O)N(CCc2ccccc2)C(=O)C1	7	/
18	O=C(/C=C/S(=O)(=O)c1ccc(Cl)cc1)c1ccc(F)cc1	/	-0.6
19	CCC(=O)N1CC23C=CC(CC2CC12CCCCC2)O3 (stereo not drawn)	22	/
20	CCCCNC(=O)Nc1ccc(Br)cn1	4	/
21	C=CCn1c(CCc2ccc(OC(C)C)cc2)n[nH]c1=S	6	-0.9
22	COc1cc2c(C#N)c(N(C)C(c3ccccc3)c3ccccc3)nc(N)c2c(N)n1	-14	/
23	Cc1csc(Nc2ccc(F)c(Cl)c2)[n+]1C(C)C	/	-12&-2.5
24	CCCn1c(=O)n(C)c(=O)c2c(SC(C)c3nc4ccccc4c(=O)[nH]3)nc(C(C)(C)C)nc21 (stereo not drawn)	-6	/
25	CCN1C(=O)/C(=C2/C=CC=CN2C)N(c2ccccc2)C1=S	-9	/
26	O=C(/C=C/C=C/c1ccccc1)c1ccc(Cl)cc1	1	2.9
27	O=C(NC1CCCCC1)N1CCCC(c2nc(-c3ccc(Cl)cc3)no2)C1 (stereo not drawn)	10	3.0
28	O=C(Oc1ccccc1)C1CCCN(C(=O)c2ccc(Cl)cc2)C1 (stereo not drawn)	8	/
29	Cc1c(C#N)c2ccccc2n1CCOc1cccc2ccccc12	-1	9.9
30	COc1ccc(CN2C(=O)c3cccnc3C2=O)cc1S(=O)(=O)N(CC(C)C)CC(C)C	32	/
31	O=C(Nc1nc2ccccc2[nH]1)c1cccc(Oc2ccccc2)c1	11	2.1
32	O=C(c1cnn2c3c(cnc12)CCCCC3)N1CCCCC1	1	-0.3
33	O=C(CN1CCN(Cc2ccc(Cl)cc2)C1=O)NCc1ccccc1Cl	15	/
34	CC(C)(C(=O)Oc1ccc(Cl)cc1)S(=O)(=O)c1ccc(C(F)(F)F)cn1	/	-1.2
35	CCNc1c(NS(=O)(=O)c2cccs2)c(=O)oc2ccccc12	-30	/
36	CCOC(=O)c1c(O)c2ccccc2n(C)c1=O	/	-0.3
37	COC(=O)c1ccc([C@H]2C(C#N)=C(N)C(C#N)(C#N)C3=CCC(C(C)(C)C)C[C@@H]32)cc1 (stereo partly drawn)	0	3.0
38	CC1CCCCC1NS(=O)(=O)c1ccc2c(c1)CC(=O)N2C (stereo not drawn)	-31	/
39	COC(CNC(=O)c1cn(C)c2ccc(S(=O)(=O)N3CCCC3)cc2c1=O)OC	-29	/
40	COC(=O)Nc1ccc(N=Cc2cccs2)cc1	7	-1.9
41	CCC(=O)Nc1ccc(C(=O)CSc2nc3ccccc3n2CCC#N)cc1	-7	/
42	O=C1NC(=S)S/C1=C\c1ccccc1OCC(=O)N1CCCC1	3	/
43	Cc1ccc(C2CC(C(F)(F)F)n3nc(C(=O)N4CCN(C(=O)c5ccccc5)CC4)c(Cl)c3N2)cc1 (stereo not drawn)	/	0.3
44	CC(NC(=O)c1ccco1)C(=O)OCc1cccc(Cl)c1 (stereo not drawn)	-5	/
45	NNS(=O)(=O)c1ccc(Br)cc1	-20	0.8

# An excerpt of these results, as labelled records:
[39] COC(CNC(=O)c1cn(C)c2ccc(S(=O)(=O)N3CCCC3)cc2c1=O)OC
  S aureus helic: -29	MgrA DNA FP: /
[40] COC(=O)Nc1ccc(N=Cc2cccs2)cc1
  S aureus helic: 7	MgrA DNA FP: -1.9
[41] CCC(=O)Nc1ccc(C(=O)CSc2nc3ccccc3n2CCC#N)cc1
  S aureus helic: -7	MgrA DNA FP: /
[42] O=C1NC(=S)S/C1=C\c1ccccc1OCC(=O)N1CCCC1
  S aureus helic: 3	MgrA DNA FP: /

# (more compounds)
No.	canonical_smiles	S aureus helic	MgrA DNA FP
46	O=c1[nH]nc(SCc2csc(-c3ccccc3)n2)n1Cc1ccco1	/	-0.4
47	O=C(Oc1ccc2cc(-c3ccc(F)cc3)c(=O)oc2c1)c1ccco1	7	-4.2
48	COc1ccc(-c2n[nH]c(=S)n2-c2ccccc2)cc1OC	1	-3.8
49	O=C(Nc1ccccc1Cl)NC1(C(=O)N2CCCCC2)CCCCC1	7	-1.9
50	C=CCNc1cc(C)nc2ccc(C)cc12	6	/
51	CCOC(=O)c1[nH]c2ccccc2c1NC(=O)c1ccc(S(=O)(=O)N2CCCC2)cc1	7	0.5
52	CN(C)CCN(Cc1ccccc1)S(=O)(=O)c1cccc2cccnc12	11	/
53	COc1ccccc1C(=S)N1CCCCC1	-39	/
54	Cn1ccnc1SCC(=O)c1cccc([N+](=O)[O-])c1	/	4.6
55	Cc1ccc(-n2c(=O)c3ccc(C(=O)NCc4ccco4)cc3n(Cc3cccc(C)c3)c2=O)cc1	8	-0.4
56	CCOC(=O)c1cc2sccc2n1CC(=O)NC(C)C	20	-1.7
57	CN1C(C(=O)NCc2ccccc2)=CC(c2ccco2)=NS1(=O)=O	12	4.8
58	C=CC[n+]1ccc2ccccc2c1	1	-0.5
59	CCC1C(=O)N=C(SCC(=O)Nc2ccc(Br)cn2)NC1=O (stereo not drawn)	9	1.8
60	COc1ccccc1C1CC(=O)Nc2c1ccc(C)c2C (stereo not drawn)	33	/
61	CC(O)c1cc(NC(=O)c2ccccc2)c(=O)oc1/C=C/N(C)C (stereo not drawn)	-128	-23
62	Cc1cc(Nc2cccc(C(F)(F)F)c2)nc2ccc(NC(=O)CSc3ccncc3)cc12	6	2.2
63	O=C(O)CSc1ncnc2sccc12	-5	/
64	O=C(O)/C=C/C(=O)Nc1ccc(Cl)cc1C(=O)c1ccccc1	/	-2.2
65	CSc1ncc(C(=O)Nc2nc(CN3CCCCC3)cs2)n1-c1ccc(F)cc1	-10	/
66	Cc1ccccc1CN(C)CC(=O)Nc1ccccc1F	-12	/
67	N#C/C(=C\Nc1ccccn1)C(=O)c1ccccc1	-15	/
68	O=C(CSc1n[nH]c(=O)n1Cc1ccccc1)c1ccc(S(=O)(=O)N2CCCC2)cc1	-6	/
69	CC(C)(C)c1cc(-c2cc(C(C)(C)C)c(O)c(C(C)(C)C)c2)cc(C(C)(C)C)c1O	/	0.2
70	Cc1c(Cl)c(C(F)(F)F)nn1CCCNC(=O)C1CCCC1	7	-1.4
71	O=C(Nc1ccc(-c2cn3c(n2)SCC3)cc1)c1ccc2nonc2c1	/	1.9
72	CC(C)(C)NC(=S)N/N=C/c1cccnc1	/	-2.3
73	CC(=O)Nc1nc2c(c(-c3ccccc3)c1C#N)CCCCC2	17	/
74	O=C(c1ccc2c(c1)N(Cc1ccc(F)cc1)CCS2)N1CCOCC1	31	/
75	O=C(Nc1ccc(Cl)cc1)OCN1C(=O)c2ccccc2C1=O	5	/
76	COC(=O)C1=C(C)NC2=C(C(=O)CCC2)C1c1ccc(C(=O)O)cc1 (stereo not drawn)	/	2.6
77	O=C(NNc1ncnc2ccccc12)c1ccncc1	-8	/
78	CC1(C)CCc2cc(S(=O)(=O)NCc3ccc(S(N)(=O)=O)cc3)ccc2O1	/	-2.2
79	COc1ccc(CNCc2ccc(N(C)C)cc2)cc1	5	-2.1
80	c1ccc(-c2ccccn2)nc1	/	-2.0
81	O=C(NCC1CCCO1)c1cc2cc(Br)ccc2oc1=O (stereo not drawn)	-15	-2.7
82	C=C1Cn2c(nc3sc(C)c(C)c3c2=O)S1	2	-1.1
83	COc1ccccc1N1CCN(c2nc(-c3cccnc3)nc3ccccc23)CC1	-8	/
84	Cc1nn(CC(=O)N(C(C)C)C(C)C)c(C)c1S(=O)(=O)NC(C)(C)C	-2	/
85	O=C(NCCCO)Nc1ccc(Cl)cc1	-1	-0.6
86	Cc1cccn2c(=O)c(/C=C3\SC(=S)N(CCc4ccccc4)C3=O)c(N3CCOCC3)nc12	/	-1.1
87	CCC(C)N(C)Cc1cccc(C2(O)CCN(S(=O)(=O)c3ccc(OC)c(OC)c3)CC2)c1 (stereo not drawn)	-21	/
88	O=C(O)CSc1ccc(Br)c2cccc(Cl)c12	18	-0.6
89	Nc1ccc(OCCN2CCCCC2)cc1	0	-2.0
90	CN(Cc1nnc(-c2ccccc2)o1)C1CCCCC1	21	/
91	FC(F)(F)c1cc(N2CCCC2)cc(C(F)(F)F)c1	/	-2.1
92	CC1(C)CSC(=NC2CCCCC2)N1	11	2.7&-1.2
93	Cc1cc2cc(CNC(=O)C(C)C)ccc2[nH]1	7	/
94	O=C(Cn1c(=O)oc2ccccc21)NCc1ccccc1	-27	/
95	NC(=S)Nc1ccc(S(N)(=O)=O)cc1	4	-1.9
96	COc1cccc(C2Nc3ccccc3NC3=C2C(=O)CCC3)c1 (stereo not drawn)	-8	/
97	COc1ccc(NC(=S)N(Cc2ccco2)Cc2cc3cc(C)c(C)cc3[nH]c2=O)cc1	-8	2.7
98	COc1ccc(OC)c(Nc2nc3nonc3nc2N2CCCC(C)C2)c1 (stereo not drawn)	/	-2.0
99	O=C(NN1CCOCC1)C12CC3CC(CC(C3)C1)C2	3	0.8
100	COc1ccc2cc(C(N)=O)/c(=N\NC(=O)c3ccccc3)oc2c1	30	/
101	O=C(c1ccc(S(=O)(=O)N2CCCCCC2)cc1)N1CCN(c2ccccn2)CC1	-7	0.3
102	O=C(OCc1cccs1)c1ccc(-c2nc3ccccc3s2)s1	-13	/
103	CC(C)n1c(SCc2ccc(F)cc2)nc2c1c(=O)n(C)c(=O)n2C	4	/
104	COc1ccc(Nc2nnns2)cc1	/	0.9
105	COc1ccc(CN(Cc2ccccc2)Cc2nnnn2C(C)(C)C)cc1	1	-1.4

# Continued:
No.	canonical_smiles	S aureus helic	MgrA DNA FP
106	CC(NC(=O)C12CC3CC(CC(C3)C1)C2)C(=O)N(C)C (stereo not drawn)	10	1.3
107	CCOC(=O)C12CCC(C(=O)O)(CC1)CC2	14	-3.4
108	Cc1cc(NC(=O)c2cc3c(s2)-c2c(C)cccc2OC3)no1	4	/
109	CC(NCc1ccc(C(=O)O)s1)c1ccccc1 (stereo not drawn)	8	-2.0
110	CCN(c1ccccc1)c1cc(C)nc2ncnn12	14	/
111	CC(C)c1ccc(NC(=O)Cn2c(=O)oc3cccnc32)cc1	/	-1.4
112	COc1ccc(C(C)(C)C)cc1NC(=O)c1ccoc1C	4	1.6
113	COC(=O)Cc1nc(Nc2ccccc2)sc1C	/	1.8
114	COc1ccc(OC)c(Nc2nc3nonc3nc2N2CCCCC2)c1	/	0.0
115	CC(=N\Nc1c(Cl)cc(Cl)cc1Cl)/C(=N\O)C(=O)Nc1ccccc1	/	-2.4
116	O=C(COC(=O)C1(c2ccccc2F)CCCC1)NCc1ccccc1	3	-1.9
117	Nc1cc(C(=O)O)ccc1NCC1CCCO1 (stereo not drawn)	0	-4.4
118	O=C(CSc1nnc(CNC(=O)c2ccco2)n1-c1cccc(C(F)(F)F)c1)Nc1ccc(F)cc1	4	/
119	Cc1oc(C(C)(C)C)cc1-c1cc(N)n(C)n1	/	-0.9
120	O=C(O)CCC(=O)NC1Cc2ccccc2C1	/	-1.4
121	COc1ccc(CCN=C(C)c2c(O)cc(C)oc2=O)cc1	8	/
122	CNC(=O)c1ccccc1Sc1ccccc1COC(C)=O	/	3.2
123	Cc1ccc2oc(=O)c3cc(C(=O)N4CCN(C)CC4)sc3c2c1	-4	/
124	O=C1c2ccccc2C(=O)N1c1cccc(-c2csc(=Nc3ccccc3)n2CCO)c1	5	-2.3
125	Cn1nc(C(=O)N2CCOCC2)c2ccccc2c1=O	7	-0.3
126	Cc1cc(NC(=O)CN(C)Cc2c(C)nn(-c3ccccc3)c2C)no1	7	/
127	Cc1ccc(S(=O)(=O)c2nc(S(=O)(=O)C3CCCCC3)sc2N(C)C)cc1	1	/
128	COc1ccc2c(c1)C(C(C#N)C#N)c1c(nc(N)c(C#N)c1N)O2 (stereo not drawn)	/	14
129	COCC(C)n1c(C)cc(C(=O)COC(=O)c2ccc(N3CCCC3=O)cc2)c1C (stereo not drawn)	-8	/
130	Cc1c(C(=O)NC2CCS(=O)(=O)C2)oc2ccccc12 (stereo not drawn)	1	-1.9

# Sorted by value in S aureus helic (descending): three from the list above
No.	canonical_smiles	S aureus helic	MgrA DNA FP
125	Cn1nc(C(=O)N2CCOCC2)c2ccccc2c1=O	7	-0.3
130	Cc1c(C(=O)NC2CCS(=O)(=O)C2)oc2ccccc12 (stereo not drawn)	1	-1.9
129	COCC(C)n1c(C)cc(C(=O)COC(=O)c2ccc(N3CCCC3=O)cc2)c1C (stereo not drawn)	-8	/

# Screens deposited in PubChem by ICCB-Longwood Screening Facility, Harvard Medical School.
